# PABP FP inh = PABP-poly(A) binding inhibition; P11940; PABP-poly(A) RNA binding, fluorescence polarization; inhibition, % at 35 µM; hit rate 1% among 290,000; AID 2014;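 active = 50% or more with normal probe brightness, or confirmed in later tests; inconclusive = above 50% with abnormal brightness, or retests that disagree; inactive = below 50% or failed in later tests; about a fifth of its hits are not listed in these tables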;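 also: calls also rest on retests at 20 µM and on dose response follow-up; controls were probe without protein and protein plus probe with vehicle; some compounds called inactive have numbers as strong as hits; many hits fall short of the cut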
# Rce1 inh = inhibitors of yeast Ras-converting enzyme. Q03530. yeast membranes, quenched prenylated peptide cleavage fluorescence. calls only. hit rate 0.27% among 290,000. AID 2563;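 active = fall in fluorescence gain of 50% or more versus controls, with final raw signal at or below 3038400; inconclusive = same 50% fall but final raw signal above 3038400; inactive = fall in fluorescence gain under 50%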;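 also: plate controls were neutral control wells for no effect and wells lacking membranes for full effect; tested at 10 µM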
# Target sequence (Q03530 whole entry, looked up): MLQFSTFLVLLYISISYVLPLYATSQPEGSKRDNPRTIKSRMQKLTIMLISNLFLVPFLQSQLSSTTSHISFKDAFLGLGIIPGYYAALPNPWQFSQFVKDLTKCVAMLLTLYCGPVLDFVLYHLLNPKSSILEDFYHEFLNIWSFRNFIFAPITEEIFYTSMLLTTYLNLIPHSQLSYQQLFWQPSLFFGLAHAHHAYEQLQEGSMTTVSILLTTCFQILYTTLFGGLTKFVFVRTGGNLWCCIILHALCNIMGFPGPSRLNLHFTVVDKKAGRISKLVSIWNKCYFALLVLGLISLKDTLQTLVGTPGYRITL
# eIF4H inh = inhibitors of RNA binding by human eIF4H. hit rate 0.94% among 290,000. Q15056. inhibition, % at 35 µM. eIF4H fluorescence polarization binding assay;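 active = 50% or more with normal probe brightness, or confirmed in later tests; inconclusive = above 50% with abnormal brightness, or retests that disagree; inactive = below 50% or failed in later tests; about a fifth of its hits are not listed in these tables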;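 also: calls also rest on retests at 20 µM and on dose response follow-up; 0% = protein and probe with vehicle and 100% = probe without protein; strong numbers were not always called active; many hits fall short of the cut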
# CSC inhib = blocks cancer stem cells; cancer stem cell-like cells viability, luminescence; inhibition, % at 7.5 µM; hit rate 1.1% among 300,000;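 active = mean at 75% or more and at least half the replicates too; inconclusive = mean and replicates disagree; tested in HMLE shEcad cells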;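 also: 0% = median of negative and 100% = median of positive control wells; the first replicate is given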
# Env fusion inh = HIV envelope-mediated fusion inhibition; HeLa-JRFL Env/CEM21 cell fusion, luciferase; inhibition, % at 12.3 µM; hit rate 1.1% among 360,000; AID 651610;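 active = mean replicate inhibition score of at least 50 and every replicate individually at or above 50; inconclusive = only one of the two criteria met; inactive = mean below 50 and not all replicates reaching 50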;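 also: 0% = plate neutral controls and 100% = maraviroc near 300 nM; one replicate is shown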
# MT1-MMP act inh = blocks activation of human MT1-MMP. hit rate 0.061% among 360,000. GFP/RFP ratio change, % at 20 µM. HT1080 RFP-PRO-GFP cells, GFP/RFP ratio fluorescence, overnight; percent of plate control window, DMSO zero;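 active = GFP/RFP ratio change of at least 30% with cell ATP level not reduced by more than half and red fluorescence within 50% of control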; also: strong numbers were not always called active
#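 Material: RFP-PRO-GFP reporter HT1080 cells. Dosing: single-point 20 µM compound, 1% DMSO. Controls: DMSO and RFP-L50D-GFP cell wells. Timing: cells overnight before dosing, compound overnight, 37 °C, 5% CO2. Measure: GFP/RFP fluorescence ratio.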
# Yeast UUG start = alters start codon recognition fidelity in yeast. AID 602363. S. cerevisiae UUG-firefly luciferase reporter, luminescence/redox ratio. hit rate 0.13% among 350,000. activity score, % at 18.7 µM;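 active = replicate mean at a twofold rise or more, about +100% in these data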;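 also: firefly luciferase made from a UUG start codon reports start codon fidelity; reporter light over untreated wells divided by growth signal over untreated wells; some hits fall short of that in this replicate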
# eIF4H inh retest = further read-out of eIF4H inh, marked with its call; inhibition, %; compound at 20 µM; confirmation average;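 mean of two retest wells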
# PABP FP inh retest = recorded beside PABP FP inh, whose call it bears; inhibition, %; compound at 20 µM; confirmation repeats;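 mean of two retest wells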
# MT1-MMP act inh RFP = further read-out of MT1-MMP act inh, marked with its call; RFP signal change, %; measured here: RFP expression control read;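 0 = vehicle wells; hits needed this value within 50% of zero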
# * = called active by the depositor; i = inactive; ? = inconclusive; / = not tested or not shown; & = joins results of further samples.
SMILES,PABP FP inh,Rce1 inh,eIF4H inh,CSC inhib,Env fusion inh,MT1-MMP act inh,MT1-MMP act inh RFP,Yeast UUG start,others
C/C=C/c1ccc(OCCCCOc2ccc(OC)cc2)c(OC)c1,3,i,-5,4,27,1,-3,/,
Cc1noc(C)c1NC(=O)N(C)C[C@H]1Oc2ccc(NS(=O)(=O)c3ccc(F)cc3)cc2C(=O)N([C@H](C)CO)C[C@@H]1C,/,/,/,-9,6,-1,-6,-4&-8,
Cc1ccsc1C(=O)NNC(=O)COc1ccc(Br)cc1,/,/,/,-1,/,5,5,14,
Cc1ccc(Nc2nc(N)nc(COC(=O)c3ccc(Br)o3)n2)cc1,/,/,/,/,-16,0,-2,-18,
O=C(c1ccccc1)N1CCN(c2cc(Cl)nc3cc(-c4cccc(Cl)c4)nn23)CC1,/,/,/,/,-7,-1,-4,-18,
CCOC(=O)[C@H](CCc1ccccc1)N[C@@H](C)C(=O)N1C(C(=O)O)C[C@@H]2CCC[C@@H]21 (stereo not given in full),/,/,/,1,-8,2,5,-8,
CC1CCCC(C)N1S(=O)(=O)c1ccc(NC(=O)CCN2C(=O)C3CC=CCC3C2=O)cc1 (stereo not given),/,/,/,/,-7,-3,1,-12,
O=C(CSc1ncnc2c1sc1ccccc12)Nc1ccc(Br)cc1,-6,i,-1,-13,-3,2,3,/,
CN(c1ccccc1)S(=O)(=O)c1ccc(C(=O)Nc2cccc(S(=O)(=O)N3CCOCC3)c2)cc1,/,/,/,/,12,-3,-27,4,
Cc1c(C)c2ccc(OCc3ccc(C(=O)O)o3)c(C)c2oc1=O,14,/,-2,-14,?,2,3,-50,
COc1ccc(Cc2nc3ccc(S(N)(=O)=O)cc3[nH]2)cc1OC,-3,i,21,18,/,/,/,/,
COc1ccccc1NC(=O)COC(=O)c1ccccc1SCC(=O)N1CCCC1,/,i,/,-7,1,-1,0,1,
OCCCCNCc1cc(Br)ccc1OCc1ccccc1,-4,i,-7,-13,-3,0,1,/,
CCCn1c(SCC(=O)N2CCN(c3ccccc3)CC2)nc2ccccc2c1=O,-7,i,3,11,-32,2,1,-14,
CCN1C(=O)N/C(=C/c2cc(C)n(Cc3ccccc3)c2C)C1=O,?,i,22,6,-41,-7,-1,/,
COc1ccc(C(=O)NC2=NCCS2)cc1,-3,i,-4,-6,-13,9,1,/,
N#CC1=C(N)Oc2n[nH]c(-c3cccs3)c2C1c1ccsc1 (stereo not given),50,i,63,-10,/,-3,1,-24,eIF4H inh retest=-2;PABP FP inh retest=2
O=c1cc(Cc2ccccc2)[nH]c(=S)[nH]1,4,i,-10,-3,/,1,4,-26,
O=[N+]([O-])c1cnc(Sc2ccncn2)c([N+](=O)[O-])c1,/,/,/,/,-3,4,-6,-12,
Cc1ccc(NS(=O)(=O)c2cc(C(=O)Nc3cccc(N(C)S(C)(=O)=O)c3)ccc2C)c(C)c1,-1,i,-9,5,/,-3,-9,-26,
CC(=O)n1nc(-c2cccnc2)nc1NCc1cccs1,3,i,7,-6,10,6,3,/,
Cn1c(=O)[nH]c(=O)c2c1nc(NCc1ccccc1)n2CCCc1ccccc1,1,i,-4,-3,/,0,-3,2,
CN(C)c1ccc(-c2csc(C(O)c3cccc(Cl)c3)n2)cc1 (stereo not given),/,/,/,/,-11,-1,-16,14,
CCC(=O)NC1(C(F)(F)F)C(=O)Nc2c1c(=O)[nH]c(=O)n2Cc1ccco1 (stereo not given),12,i,6,-20,/,-2,-2,-12,
O=C(c1cc(Cl)nc2ccccc12)N1CCN(S(=O)(=O)c2cccc(C(F)(F)F)c2)CC1,/,i,/,2,5,2,3,-17,
COc1ccc(NC(=O)c2sc3nc(-c4cccnc4)ccc3c2N)cc1,9,i,21,16,3,-23,2,-7,
O=C(O)c1cc(NS(=O)(=O)c2ccc(NCc3ccccc3)c([N+](=O)[O-])c2)cc(C(=O)O)c1,32,i,39,/,2,2,3,-10,
O=C(CC1C(=O)NCCN1Cc1ccccc1C(F)(F)F)NC1CCCC1 (stereo not given),7,i,6,2,6,-1,3,-6,
Cc1cccc(NC(=O)COC(=O)c2ccccc2SCC(=O)N2CCCC2)c1,4,i,-15,-9,-11,0,1,-1,
COc1ccc(OC)c(-c2nc(CN3CCCCC3c3cccnc3)c(C)o2)c1 (stereo not given),-3,i,2,-4,1,-4,2,/,
Cc1cccc(NC(=S)NNC(=O)c2ccc(O)cc2O)c1C,-5,i,4,-14,3,7,5,-25,
N#Cc1cccc(C(c2nnnn2C2CCCC2)N2CCCCCC2)c1 (stereo not given),12,i,-6,2,?,-8,-3,-11,
CCN(CC)C(=O)c1cccc(-c2csc(C(O)c3ccco3)n2)c1 (stereo not given),/,/,/,/,-13,-7,-1,-8,
COc1cc(-c2cnc3c(NC(C)=O)cc(-c4cccc(C(=O)NCCO)c4)cn23)cc(OC)c1OC,/,/,/,/,-12,10,8,-25,
CCOC(=O)C1=C(COC(=O)/C=C/c2ccccc2Cl)NC(=O)NC1C (stereo not given),-16,i,-7,/,-5,3,0,-10,
O=C(c1cccc(N2C(=O)c3ccccc3C2=O)c1)N1CCCC(C(F)(F)F)C1 (stereo not given),/,i,/,-10,-3,-1,1,6,
COc1ccccc1C1CC(c2ccc(NS(C)(=O)=O)cc2)=NN1C(=O)c1ccccc1 (stereo not given),-10,/,10,-16,7,-4,-1,/,
O=C(OC(C(=O)NCc1ccc(F)cc1)c1ccccc1)c1ccco1 (stereo not given),10,i,15,-12,13,1,2,-17,
C/C(=N\NC(=O)C1COc2ccccc2O1)c1ccc(Cl)s1 (stereo not given),5,i,-5,/,-6,5,2,/,
O=C(C1CCN(S(=O)(=O)N2CCCC2)CC1)N1CCCCC1,5,i,8,-6,-26,-4,0,/,
COc1ccccc1CCNC(=O)Cn1ccc2cc(S(=O)(=O)N3CCC(C)CC3)ccc21,-8,i,3,-6,2,5,-6,9,
CC(C)=C1C2CCC1C1C(=O)N(CCc3ccccc3)C(=O)C21 (stereo not given),7,i,-3,2,7,5,0,/,
Cc1ccccc1NC(=S)NC(=O)C1CCCCC1,-1,i,-3,-15,11,-4,-4,-25,
O=C(c1cccc([N+](=O)[O-])c1)N1CCCC(C(=O)N2CCCCCC2)C1 (stereo not given),-9,i,0,-6,-4,1,0,-6,
CCC(C)N(C(=O)Cn1nnc2ccccc21)C(C(=O)Nc1ccc(F)cc1)c1cccc(OC)c1 (stereo not given),-12,i,-9,0,35,5,-3,-25,
CC(C)C(NC(=O)c1cccs1)C(=O)NC1CCCCC1 (stereo not given),-6,i,0,-9,6,-2,-1,-3,
CCCCNC(=O)N1CCN(c2ccccc2OC)CC1,5,i,-1,-6,13,0,2,-2,
CCN(c1ccc(NC(=O)COC(=O)/C=C/c2ccco2)cc1)C(C)C,/,/,/,-5,/,4,4,-13,
COc1ccc(S(=O)(=O)N2CCCCCC2)cc1NC(=O)c1ccccc1F,/,/,/,9,10,-4,-6,-1,
CC1(C)CC(=O)C(C=Nc2ccc(C(=O)c3ccccc3)cc2N=CC2=C(O)CC(C)(C)CC2=O)=C(O)C1,4,i,?,-3,17,-121,5,/,
FC(F)Oc1ccc(NC(=S)NCc2nc3ccccc3[nH]2)cc1,-6,i,2,6,7,4,4,/,
O=C(/C=C1\NC2(CCCC2)Cc2ccccc21)C(=O)N/N=C/c1ccc(O)c(O)c1,2,i,31,68,24,-28,-22,/,
COc1cc(NC(=O)CN2c3cccc4cccc(c34)S2(=O)=O)cc(OC)c1OC,7,i,-2,/,/,-1,-18,-8,
COc1cc(S(=O)(=O)N2CCCCC2)ccc1NC(=O)c1ccncc1,9,i,9,-2,0,-3,-4,16,
CCS(=O)(=O)Nc1cccc(C2=NN(C(C)=O)C(c3cccs3)C2)c1 (stereo not given),-6,i,-10,4,20,1,-1,-18,
Cc1cc(Cl)cc(C)c1OCCNCc1ccccc1,-5,i,-4,18,8,-4,3,-9,
COc1ccccc1NC(=O)CNC(=O)Cn1cnc2sc(C)c(C)c2c1=O,5,i,9,5,3,2,2,-19,
CC(C)(C)NC(=O)Cn1c(SCC(=O)NCc2cccs2)nc2ccccc21,0,i,-9,-9,-24,4,1,5,
O=C(Nc1ccc(Br)cc1)C1CCN(C(=O)c2ccco2)CC1,1,i,-2,-12,1,-4,-1,2,
CCn1cc(CN2CCC(n3nccc3NC(=O)Cc3ccccc3)CC2)c(C)n1,9,i,5,3,-5,1,3,-10,
# Further entries
SMILES,PABP FP inh,Rce1 inh,eIF4H inh,CSC inhib,Env fusion inh,MT1-MMP act inh,MT1-MMP act inh RFP,Yeast UUG start,others
COc1ccc(C(C(=O)NC(C)(C)C)N(C(=O)Cn2nnc3ccccc32)c2cccc(C(C)=O)c2)cc1O (stereo not given),13,i,0,-4,-26,-1,4,/,
COc1cc(C(=O)OCCN2CCCCC2)ccc1O,-6,i,2,13,/,2,6,-13,
CCOC(=O)c1cc(C#N)c(C)nc1N(CC)CC,-4,i,2,-11,-4,2,-1,-21,
CC(=O)Nc1cccc(C(=O)NNC(=O)c2ccc(NS(=O)(=O)c3cccs3)cc2)c1,/,/,/,/,-9,1,2,-10,
CCn1c(COc2ccc3c(c2)OCO3)nnc1SCC(=O)O,12,i,0,3,/,1,4,-14,
CN(C)C(=O)c1cc(C(=O)c2ccc(F)cc2C(F)(F)F)c[nH]1,2,i,1,8,41,6,-13,-24,
CCOc1ccc2nc(NC(=O)CSc3nnnn3C3CCCCC3)sc2c1,-2,i,-13,-10,-35,-6,2,-19,
Nn1c(Cc2cccc3ccccc23)nnc1SCc1c(Cl)cccc1Cl,3,i,3,-10,-17,0,-5,/,
CCOC(=O)C1(CC2CCCCO2)CCN(C(=O)Nc2ccc(C(=O)OC)cc2)CC1 (stereo not given),12,i,-4,1,7,0,-2,-2,
O=C1c2ccc(Oc3cccc([N+](=O)[O-])c3)cc2C(=O)N1c1ccccn1,-2,/,-4,-8,8,2,6,/,
Cc1ccccc1-n1nc(C)c2c(C(=O)NN)cc(-c3ccncc3)nc21,-10,i,-1,-9,7,4,4,-16,
CCOC(=O)N1CCN(Cc2ccccc2F)CC1,2,i,-5,/,/,6,5,/,
Cc1cccc(NS(=O)(=O)c2ccc3oc(=O)ccc3c2)c1C,0,i,1,-12,-6,1,-3,-10,
COc1cccc(-c2csc(N3CCN(C(=O)Nc4ccc(Cl)cc4)CC3)n2)c1,-11,i,0,11,23,-4,-18,/,
Cn1c(SCC(=O)NCC2CCCO2)ncc(C(=O)Nc2ccc(Cl)cc2)c1=O (stereo not given),/,i,/,26,-23,-13,-6,-22,
Cc1cc(C)c(S(=O)(=O)N2CCC(C(N)=O)CC2)cc1C,0,i,0,-2,-12,-3,1,-16,
CC(=O)Nc1ccc(S(=O)(=O)O)c(OC(C)=O)c1,/,/,/,/,?,0,5,-10,

# Ordered by formula weight (highest first): some entries from above
SMILES,PABP FP inh,Rce1 inh,eIF4H inh,CSC inhib,Env fusion inh,MT1-MMP act inh,MT1-MMP act inh RFP,Yeast UUG start,others
COc1ccccc1C1CC(c2ccc(NS(C)(=O)=O)cc2)=NN1C(=O)c1ccccc1 (stereo not given),-10,/,10,-16,7,-4,-1,/,
O=C(Nc1ccc(Br)cc1)C1CCN(C(=O)c2ccco2)CC1,1,i,-2,-12,1,-4,-1,2,
COc1ccc(Cc2nc3ccc(S(N)(=O)=O)cc3[nH]2)cc1OC,-3,i,21,18,/,/,/,/,

# Bioassay records (PubChem)
